Compound activity from PubChem BioAssay.
RecA intein inh: inhibitors of M. tuberculosis RecA intein splicing. actives 0.75% (n = 290,000). P9WHJ3. inhibition, %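 (about 9 µM by stock and volumes)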. cell-free RecA intein splicing, fluorescence. AID 2221; in the data active = inhibition above about 30%; inconclusive = no clear call, values can overlap the other calls;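 note: 0% = vehicle wells and 100% = reference inhibitor control wells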
Target sequence (P9WHJ3 whole entry, looked up): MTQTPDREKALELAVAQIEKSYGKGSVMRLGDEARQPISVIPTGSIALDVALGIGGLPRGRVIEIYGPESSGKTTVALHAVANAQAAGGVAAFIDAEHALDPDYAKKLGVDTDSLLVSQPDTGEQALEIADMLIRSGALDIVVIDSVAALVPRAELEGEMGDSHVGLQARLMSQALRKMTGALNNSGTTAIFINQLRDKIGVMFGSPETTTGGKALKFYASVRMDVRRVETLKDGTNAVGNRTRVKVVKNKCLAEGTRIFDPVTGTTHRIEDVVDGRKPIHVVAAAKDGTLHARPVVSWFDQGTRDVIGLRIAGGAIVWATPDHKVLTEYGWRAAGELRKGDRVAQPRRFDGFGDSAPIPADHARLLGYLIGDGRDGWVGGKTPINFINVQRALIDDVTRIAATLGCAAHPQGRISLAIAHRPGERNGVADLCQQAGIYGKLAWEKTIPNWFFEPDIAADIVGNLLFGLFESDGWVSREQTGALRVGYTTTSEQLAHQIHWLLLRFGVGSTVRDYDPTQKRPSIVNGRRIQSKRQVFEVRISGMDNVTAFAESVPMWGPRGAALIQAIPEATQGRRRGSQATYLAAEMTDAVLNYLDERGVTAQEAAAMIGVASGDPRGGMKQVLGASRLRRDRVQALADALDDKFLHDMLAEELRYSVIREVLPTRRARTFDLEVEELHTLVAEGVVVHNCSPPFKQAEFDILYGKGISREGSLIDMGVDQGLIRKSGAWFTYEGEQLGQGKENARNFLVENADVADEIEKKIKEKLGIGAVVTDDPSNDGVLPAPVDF
Arbovirus inh: arbovirus infection inhibition; actives 0.37% (n = 200,000); inhibition, % at 10 µM; arbovirus infection cell-based antiviral screen; AID 1251;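 active = inhibition from about 30%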;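 note: bluetongue infection of BSR cells; cell survival read as ATP light after 72 h; 0% = infected wells without compound and 100% = uninfected wells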
YopH inh: inhibitors of Yersinia enterocolitica YopH tyrosine phosphatase; fluorescence Ex485/Em525; inhibition, %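 (about 10 µM by stock and volumes)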; actives 0.16% (n = 140,000); AID 898;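 active = inhibition of 50% or more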;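 note: controls were vehicle for no effect and minimum signal wells for full effect; inactives centre near -20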
Mtb betalactam: beta-lactam sensitization of Mtb H37Rv; M. tuberculosis H37Rv growth with meropenem, percent inhibition; hits of this screen are not shown here; inhibition, % at 25 µM; actives 0.27% (n = 330,000);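 active = about 74% or more and at least 40 points above the plate without the antibiotic, then above 30% in a dose series; inconclusive = first-round hits that could not be retested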;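 note: growth measured after seven days incubation then overnight dye step; 0% = bacteria only wells and 100% = bacteria with antibiotic; twin plates without the antibiotic show which effects depend on it; some results filed as inactive read as strong as hits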
Mtb H37Rv: M. tuberculosis H37Rv growth inhibitors, H37Rv strain (AID 1626). M. tuberculosis H37Rv growth inhibition; higher % means a stronger effect. inhibition, % at 10 µM, or IC50 in µM where a hit was titrated. actives 0.95% (n = 220,000);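 active = confirmed in a dose series; inconclusive = inhibition above 80% but not taken into the dose series; inactive = below 80% or under 30% at every dose of the series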;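 note: bacteria incubated seven days before Alamar blue readout; 0% = bacteria only wells and 100% = bacteria with antibiotic wells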
Arbovirus inh repeat: further read-out of Arbovirus inh, marked with its call; inhibition, %; measured here: 10K subset replicate screen; many hits read low in the repeat;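 first of two repeat runs on a subset; 0% = infected and 100% = uninfected wells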
Starred values were filed as active, the others as inactive; ? = inconclusive; . = no result given. This is a subset, so the mix of outcomes need not match the whole.

SMILES	RecA intein inh	Arbovirus inh	YopH inh	Mtb betalactam	Mtb H37Rv	others
COC(=O)c1sc(NC(=O)C(C)c2ccccc2)nc1C (stereo not drawn)	5.1	-32.3	-23.0	-4.0	0.5%
CCCc1nc(SCC(=O)Nc2nnc(CC)s2)c2c(C)c(C)sc2n1	4.5	6.3	-43.8	3.7	-0.5%
c1nc2sc3c(c2c2nnnn12)CCC3	-1.6	6.4	-50.1	-4.3	-5.6%
COc1cc(OC)c(C#N)c(S(=O)Cc2ccccc2)c1 (stereo not drawn)	0.3	-11.1	-39.5	-7.2	-6.8%
C/C(=N\O)c1noc(C)c1C(=O)Nc1nccs1	3.0	.	.	?	.
Fc1cc(F)c2nc(N3CCCCC3)sc2c1	-2.3	2.9	-10.8	3.8	-5.6%
CC1CCCC(C)N1/N=C/C=C/c1ccccc1[N+](=O)[O-] (stereo not drawn)	-2.5	3.4	.	-5.0	-0.7%
COCCN(C(=O)CNC(=O)c1ccco1)C(C(=O)NC1CCCC1)c1ccccc1F (stereo not drawn)	-1.6	.	.	3.0	.
Cc1cc(S(=O)(=O)N2CCN(c3ccccc3O)CC2)c(C)s1	0.6	9.5	0.7	-2.9	8.8%
Cc1ccc(Cn2c(=N)n(CC(O)c3ccco3)c3ccccc32)cc1 (stereo not drawn)	-1.1	-0.3	-15.5	-15.4	3.7%
CNC(=O)c1c(Br)cnn1-c1ccc(C)cc1	.	-1.1	.	-6.3	4.2%
COc1ccc(CN2CN(S(=O)(=O)c3cccs3)c3nc4ccccc4nc32)cc1	-1.3	.	.	-0.8	5.3%
COC(=O)c1sc2cc(C(F)(F)F)cnc2c1-c1ccccc1	0.9	-4.2	-36.7	5.0	5.1%
CCOC(=O)c1sc(NC(=O)C2C3C=CC(C3)C2C(=O)O)nc1C (stereo not drawn)	.	6.8	-6.1	-8.0	-0.2%
CCOc1ccc(C(CC(=O)O)NC(=O)COc2ccccc2)cc1 (stereo not drawn)	0.1	3.3	-1.2	3.8	-7.7%
COc1cccc(C(=O)NC(C)c2ccc(-c3ccccc3)cc2)c1OC (stereo not drawn)	6.1	.	.	-1.5	.
N#Cc1cccc(NC(=O)COC(=O)c2ccccc2C(=O)c2ccc(Cl)c([N+](=O)[O-])c2)c1	27.9	-36.6	-31.1	1.4	-5.0%
Cc1ccc(-n2nc(C)c(/C=N/NC(=O)c3cccs3)c2Cl)cc1	-2.1	-14.1	-14.9	87.2	3.6%
Cc1cc(=O)[nH]c(SCC(=O)NCc2ccco2)n1	-1.1	8.4	3.3	-1.1	-2.6%
CCn1c(SCC(=O)OC)nc2sc3c(c2c1=O)CCC3	2.2	0.4	-23.1	3.5	-1.4%
Cn1c(COc2ccccc2)nnc1SCCN1CCOCC1	.	4.3	-22.3	-2.1	0.4%
O=C(CSc1nc(C2CCCCC2)nc2ccccc12)N1CCCC1	6.4	-0.1	.	7.5	-0.5%
O=C(NCCN1CCOCC1)c1ccc(CS(=O)(=O)c2c(Cl)cccc2Cl)o1	.	1.3	-15.1	0.1	-11.9%	Arbovirus inh repeat=2.6
O=C(c1ccc2c3c(cccc13)CC2)C1CCCN(CC2CC2)C1 (stereo not drawn)	-16.1	-22.9	.	-5.9	13.9%
O=C1CC2(CCN(C(=O)c3cccc([N+](=O)[O-])c3)CC2)Oc2ccccc21	-2.1	.	.	-10.6	.
COc1cccc(N2CCN(C(=S)Nc3ccccc3)CC2)c1	-2.1	.	.	-5.9	.
CCNC(=O)c1c(O)c2ccccc2[nH]c1=O	-182.1	1.1	-32.8	14.9	6.1%
c1ccc(COc2ccc(Oc3nc(N4CCCCC4)nc(N4CCOCC4)n3)nn2)cc1	1.0	-2.0	-37.4	11.3	-3.8%
Cc1ccc2[nH]c(=O)c(CN(Cc3ccc4c(c3)OCO4)Cc3nnnn3Cc3ccco3)cc2c1	6.7	-29.0	-5.8	7.1	14.7%
Clc1ccc(-n2nnnc2SCc2cn3ccccc3n2)cc1	-1.5	-3.3	-27.8	-5.9	5.0%
Cc1ccc(C(=O)NCc2nnc(SCC(=O)Nc3ccccc3)n2C)cc1	-3.2	0.6	-11.9	-5.0	-1.3%
C[C@@H](NC(=O)c1cc2c([nH]c3ccccc32)c(-c2ccccc2)n1)C(=O)O	3.9	.	.	-6.3	.
COc1ccc(COc2cc(-c3cccc(OC)c3)nc3ccc(NC(=O)c4cccnc4)cc23)cc1	-0.5	-22.4	7.7	27.6	-1.1%
c1ccn2cc(C34CC5CC(CC(C5)C3)C4)nc2c1	3.1	20.1	.	-6.8	8.0%
CCOc1ccc2nc(NC(=O)c3ccc(S(=O)(=O)N4CCOCC4)cc3)sc2c1	-3.7	4.2	-40.3	15.2	.
CN(c1ccccc1)S(=O)(=O)c1cccc(NC(=O)Cc2c(F)cccc2Cl)c1	8.5	14.3	-14.0	-1.9	10.0%
O=C(NCc1ccccc1)C1CC(=O)N(c2ccc(OCC(=O)N3CCCC3)cc2)C1 (stereo not drawn)	-1.0	1.8	-76.5	-8.8	-7.3%
COc1ccc(C2NC(=O)CS2)cc1 (stereo not drawn)	-0.1	-3.5	-133.7	-0.1	-0.8%
COc1ccccc1CNS(=O)(=O)c1cccs1	-0.5	.	.	9.1	.
CC(=O)OC1c2c(ccc3ccc(=O)oc23)OC(C)(C)C1OC(=O)CC(C)C (stereo not drawn)	-0.7	-0.6	-15.6	7.2	.
CCCn1c(N)c(C(=O)CSc2nc(C)cs2)c(=O)n(C)c1=O	0.0	0.7	4.8	-16.3	-9.5%
COc1ccc(NC(=O)Nc2nnc(-c3cccs3)s2)cc1	-2.1	.	.	-5.4	.
CCN1C(=O)CSc2ccc(C(=O)NC3CCCCC3)cc21	-6.1	5.2	-52.7	31.1	0.6%
Cc1cc(C)n(CCC(=O)N2CCN(S(=O)(=O)c3ccc(C)c(C)c3)CC2)n1	-2.6	.	.	2.8	.
CSc1nsc(NC(=O)Cc2ccccc2)n1	0.0	6.0	-29.3	4.1	7.9%
O=C(Nc1ccc(CN2CCS(=O)(=O)CC2)cc1)c1ccc(C(F)(F)F)cc1	0.1	.	.	-6.7	10.1%
O=C(CCC(=O)c1ccc(F)cc1)Nc1cccnc1	1.6	-7.8	43.5	-3.5	-5.6%
CCOC(=O)C1(Cc2ccc(Cl)cc2)CCN(C(=O)CCc2cnccn2)CC1	-0.5	-0.2	.	-5.6	-6.5%
Cc1csc(C(=O)NN)c1N(C)C	1.5	.	.	0.0	5.4%
O=C(NCCNC(=O)c1ccccc1F)c1ccco1	1.5	.	.	5.9	.
CC(c1nccs1)N(C)c1nc2nonc2nc1NC1CC1 (stereo not drawn)	-1.4	-4.5	.	-1.0	-11.2%
CC(Sc1nnc(-c2ccco2)o1)C(=O)NCCC1=CCCCC1 (stereo not drawn)	0.5	10.2	.	-5.3	17.9%
c1coc(CNc2ncnc3ccccc23)c1	2.9	5.3	-44.3	-1.4	2.5%
COc1cccc(/C=N/NC(=O)C(=O)N/N=C/c2cccc(OC)c2O)c1O	.	-23.1	.	.	-7.1%
CCCc1ncc(CN2CCCCC2C(=O)Nc2ccc(Oc3ccccc3)nc2)cn1 (stereo not drawn)	4.2	.	.	-20.7	.
CN(C(=O)C1CCC(CNS(=O)(=O)c2cccc3cccnc23)CC1)C1CCCCC1 (stereo not drawn)	1.7	.	.	6.4	.
CCOc1ccccc1Nc1nnc(C)c(=O)[nH]1	1.4	0.7	-18.1	-3.3	-13.7%	Arbovirus inh repeat=3.1
O=C(O)CSCC(=O)N1CCN(c2cc(C(F)(F)F)nc3ccccc23)CC1	-0.5	.	.	-0.8	.
CCOc1ncccc1C(=O)Nc1ccc(Cl)cc1	4.0	7.5	-17.3	-0.4	-0.8%
O=c1c2[nH]c3ccc(Br)cc3c2ncn1CCCn1ccnc1	0.6	-8.8	-43.5	-17.4	-1.3%
Carrying on.
SMILES	RecA intein inh	Arbovirus inh	YopH inh	Mtb betalactam	Mtb H37Rv	others
CC(C)(C)C(=O)OCc1nc(-c2ccc(F)cc2)cs1	1.4	.	.	0.7	.
O=C(c1ccc(CS(=O)c2cccc(Cl)c2)o1)N1CCOCC1 (stereo not drawn)	-0.7	.	.	3.8	.
Cc1cccc(C(=O)N2CCCC(c3nc(-c4ccc(F)cc4)no3)C2)c1 (stereo not drawn)	4.2	.	.	-4.6	.
Oc1cc2c(cc1C(c1ccc(Br)cc1)N1CCCC1)OCO2 (stereo not drawn)	.	-9.3	.	.	25.3%
CSCCC1NC2(C(=O)Nc3ccc(Cl)cc32)[C@@H]2C(=O)N(C3CCCC3)C(=O)[C@H]12 (stereo partly drawn)	1.0	4.3	-22.1	1.7	-9.1%
CC(=NCc1ccco1)c1c(O)n(-c2ccccc2C)c(=O)[nH]c1=O	-3.9	.	.	-4.8	0.3%
COc1cc(C(=O)N2CCC(n3cnc4cc(F)ccc43)CC2)cc(OC)c1OC	1.1	3.1	-37.5	-10.0	-17.0%
Cn1cc(C(=O)NS(=O)(=O)Nc2ccc(Br)cc2)c2ccccc21	2.0	.	.	0.1	.
C=CCNc1nc(N)c(C(=C(C#N)C#N)c2ccc(Br)cc2)s1	-9.0	2.0	7.5	-4.9	12.1%
COc1cnc(-c2ccccc2)[nH]c1=O	-1.6	1.0	.	3.8	.
CC(NCc1ccccc1)c1ccccc1O (stereo not drawn)	-0.5	.	.	5.1	-9.6%
COc1ccc(CC(=O)OC(C)CN2CCCCC2)cc1 (stereo not drawn)	-2.3	0.3	.	-5.0	-10.4%
Cc1nc(CC(=O)Nc2nccs2)cs1	-0.3	.	.	5.7	.
Cc1cccc(NC(=S)N2CCn3cccc3C2c2cccnc2)c1 (stereo not drawn)	0.6	-1.9	-8.7	-7.7	.
CNS(=O)(=O)c1ccc(-c2ccc(C=C3C(=O)NC(=O)NC3=O)o2)cc1	-2.1	.	.	4.0	.
C/C(=N/NC(=O)c1ccco1)c1ccc(NC(=O)c2ccc(Br)o2)cc1	1.4	.	.	10.1	.
N#Cc1c(-c2ccccc2F)cc(C2CC2)nc1SCC(=O)c1cccs1	1.2	10.9	-50.5	-5.1	1.8%
CCCCCNc1nc(NCCCO)c(C#N)c2c1CN(C)CC2	-61.6	1.1	-15.6	-5.3	0.8%
On1cnnc1-c1ccccc1	-0.1	4.3	-47.2	0.8	-4.7%
CCCOc1ccc(N2C(=O)CC(N(CCC)C(=O)CCC(=O)O)C2=O)cc1 (stereo not drawn)	-3.3	-0.6	-8.4	0.9	4.8%
Cc1ccc(-n2c(SCC(=O)Nc3ccc4c(c3)OCO4)nnc2-c2ccoc2C)cc1	-0.1	-10.8	-46.6	-2.5	5.5%
CCN(CC)S(=O)(=O)c1ccc(Cl)c(C(=O)Oc2cccc(-c3cnc4ccccc4n3)c2)c1	2.1	-1.2	-24.1	93.6	?
CCCCCC(=O)NNC(=S)NC(=O)c1ccccc1[N+](=O)[O-]	3.8	-12.8	.	-1.7	1.0%
COc1ccc(N(Cc2cc3ccccc3[nH]c2=O)C(=O)C2CCCO2)cc1 (stereo not drawn)	-5.3	-2.0	-51.7	-9.5	4.4%
O=C(CC(C(=O)N1CCc2ccccc21)n1ccnc1)NCc1cccnc1 (stereo not drawn)	-0.9	-3.9	-5.2	9.8	-5.7%
Cc1c(/C=C/C(=O)c2ccc(C(C)C)cc2)cnn1C	2.5	5.0	.	-1.9	8.7%
CC(=O)N1CCc2cc(S(=O)(=O)CCC(=O)NCc3ccc(C)o3)ccc21	1.4	.	.	7.6	.

Gathered by group: those above containing an NH in an aromatic ring.
SMILES	RecA intein inh	Arbovirus inh	YopH inh	Mtb betalactam	Mtb H37Rv	others
Cc1cc(=O)[nH]c(SCC(=O)NCc2ccco2)n1	-1.1	8.4	3.3	-1.1	-2.6%
CCNC(=O)c1c(O)c2ccccc2[nH]c1=O	-182.1	1.1	-32.8	14.9	6.1%
Cc1ccc2[nH]c(=O)c(CN(Cc3ccc4c(c3)OCO4)Cc3nnnn3Cc3ccco3)cc2c1	6.7	-29.0	-5.8	7.1	14.7%
C[C@@H](NC(=O)c1cc2c([nH]c3ccccc32)c(-c2ccccc2)n1)C(=O)O	3.9	.	.	-6.3	.
CCOc1ccccc1Nc1nnc(C)c(=O)[nH]1	1.4	0.7	-18.1	-3.3	-13.7%	Arbovirus inh repeat=3.1
O=c1c2[nH]c3ccc(Br)cc3c2ncn1CCCn1ccnc1	0.6	-8.8	-43.5	-17.4	-1.3%
CC(=NCc1ccco1)c1c(O)n(-c2ccccc2C)c(=O)[nH]c1=O	-3.9	.	.	-4.8	0.3%
COc1cnc(-c2ccccc2)[nH]c1=O	-1.6	1.0	.	3.8	.
COc1ccc(N(Cc2cc3ccccc3[nH]c2=O)C(=O)C2CCCO2)cc1 (stereo not drawn)	-5.3	-2.0	-51.7	-9.5	4.4%
